# Mtb bLac sens: beta-lactam sensitization of Mtb H37Rv, H37Rv; M. tuberculosis H37Rv growth with meropenem, percent inhibition; hits of this screen are not shown here; inhibition, % at 25 µM; hit rate 0.27% among 330,000;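 active means about 74% or more and at least 40 points above the plate without the antibiotic, then above 30% in a dose series; inconclusive means first-round hits that could not be retested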;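 further: growth measured after seven days incubation then overnight dye step; 0% = bacteria only wells and 100% = bacteria with antibiotic; twin plates without the antibiotic show which effects depend on it; some results filed as inactive read as strong as hits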
# YopH inh: YopH tyrosine phosphatase inhibitors, primary screen, biochemical, fluorescence Ex485/Em525 | YopH tyrosine phosphatase [Yersinia enterocolitica] | inhibition, %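 (about 10 µM by stock and volumes)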 | hit rate 0.16% among 140,000;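 active means inhibition of 50% or more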;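 further: controls were vehicle for no effect and minimum signal wells for full effect; inactives centre near -20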
# RecA intein inh: Mtb RecA intein splicing inhibitors, primary screen, biochemical, fluorescence, HTS; cell-free RecA intein splicing; Protein RecA (Mycobacterium tuberculosis (strain ATCC 25618 / H37Rv)), P9WHJ3; hit rate 0.75% among 290,000; inhibition, %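 (about 9 µM by stock and volumes)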; in the data active means inhibition above about 30%; inconclusive means no clear call, values can overlap the other calls;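 further: 0% = vehicle wells and 100% = reference inhibitor control wells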
# Target sequence (P9WHJ3 whole entry, looked up): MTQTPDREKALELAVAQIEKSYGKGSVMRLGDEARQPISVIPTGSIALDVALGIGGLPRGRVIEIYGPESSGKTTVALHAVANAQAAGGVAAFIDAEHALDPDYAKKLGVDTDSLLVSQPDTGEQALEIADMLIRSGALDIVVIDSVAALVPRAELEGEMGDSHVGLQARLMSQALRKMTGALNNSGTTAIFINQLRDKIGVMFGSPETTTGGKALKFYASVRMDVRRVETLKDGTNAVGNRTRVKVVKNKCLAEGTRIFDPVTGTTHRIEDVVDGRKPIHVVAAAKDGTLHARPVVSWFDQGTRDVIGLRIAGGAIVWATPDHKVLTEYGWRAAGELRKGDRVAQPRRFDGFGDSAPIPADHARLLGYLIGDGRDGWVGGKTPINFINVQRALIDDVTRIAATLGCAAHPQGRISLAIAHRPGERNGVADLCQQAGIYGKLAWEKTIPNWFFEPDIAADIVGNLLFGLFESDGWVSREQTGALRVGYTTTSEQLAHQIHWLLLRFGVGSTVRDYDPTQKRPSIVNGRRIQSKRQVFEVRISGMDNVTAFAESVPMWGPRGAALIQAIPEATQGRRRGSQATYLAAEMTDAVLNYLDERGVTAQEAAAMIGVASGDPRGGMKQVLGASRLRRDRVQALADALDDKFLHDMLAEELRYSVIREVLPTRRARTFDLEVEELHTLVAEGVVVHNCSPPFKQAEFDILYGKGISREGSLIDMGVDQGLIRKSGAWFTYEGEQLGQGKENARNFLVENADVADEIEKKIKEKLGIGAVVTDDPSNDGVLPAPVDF
# Mtb H37Rv: M. tuberculosis H37Rv growth inhibitors, H37Rv strain (AID 1626). M. tuberculosis H37Rv growth inhibition; higher % means a stronger effect. inhibition, % at 10 µM; hits with a dose series show IC50 in µM. hit rate 0.95% among 220,000;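 active means confirmed in a dose series; inconclusive means inhibition above 80% but not taken into the dose series; inactive means below 80% or under 30% at every dose of the series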;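 further: bacteria incubated seven days before Alamar blue readout; 0% = bacteria only wells and 100% = bacteria with antibiotic wells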
# Arbovirus anti: antivirals against arbovirus infection, primary screen, cell-based, full library, 10K replicate subset. arbovirus infection cell-based antiviral screen. inhibition, % at 10 µM. hit rate 0.37% among 200,000. AID 1251, 2008;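 active means inhibition from about 30%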;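 further: bluetongue infection of BSR cells; cell survival read as ATP light after 72 h; 0% = infected wells without compound and 100% = uninfected wells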
# Arbovirus anti repeat: further read-out of Arbovirus anti, marked with its call; inhibition, %; measured here: 10K subset replicate screen; many hits read low in the repeat;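 first of two repeat runs on a subset; 0% = infected and 100% = uninfected wells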
# Active calls of the source: *; ? = inconclusive; · = not tested or not shown. The list is partial; the hit share may differ from the screen's.
SMILES,Mtb bLac sens,YopH inh,RecA intein inh,Mtb H37Rv,Arbovirus anti,others
O=C(c1ccccc1)c1ncc[nH]1,-6.6,·,0.5,·,·,
CCn1cc(C(=O)NCCCN(C)C)c(=O)c2cc(F)c(N3CCN(C)CC3)cc21,-11.9,-7.0,1.0,-1.8%,-1.2,
CCOC(=O)C1=C(c2ccccc2)ON(C)C1c1ccccc1 (configuration not stated),-9.1,-31.1,-1.6,0.3%,0.5,
COc1ccc(N2C(=O)/C(=C/c3ccc([N+](=O)[O-])cc3)N=C2C)cc1,-2.8,·,0.3,-5.4%,-0.2,
Cn1cc([N+](=O)[O-])c(C(=O)Nc2ccc(C(=O)N3CCCCC3)cc2)n1,-6.3,-28.8,-7.0,0.2%,-29.7,
COc1ccc(/C=N/NC(=O)c2cc3c(OC)ccc(OC)c3[nH]2)cc1O,6.3,·,-1.4,·,·,
CCOc1cc(C2NC(=O)NC(O)(C(F)(F)F)C2C(=O)c2ccccc2)ccc1OC (configuration not stated),-2.2,-21.8,1.1,-20.0%,16.8,Arbovirus anti repeat=7.3
Clc1ccc(CSc2snnc2-c2ccccc2)cc1,-1.5,-24.8,17.4,5.4%,-32.7,
C=CCc1ccc(OCC(O)CN2CCCCC2C)c(OC)c1 (configuration not stated),-3.9,-30.1,2.6,0.2%,4.8,
CN(C)/C=C\C(=C/C(=O)C(F)(F)F)Nc1ccccc1Oc1ccccc1,-1.9,·,11.8,2.1%,6.9,
CCOc1ccc(N2C(=O)/C(=C\c3ccc(OC)c(O)c3)S(=O)(=O)C2c2cccc([N+](=O)[O-])c2)cc1 (configuration not stated),80.5,·,81.7*,>100µM*,-0.3,
CSc1ccc(S(=O)(=O)NCC(=O)OCC(=O)NCc2cccs2)cc1[N+](=O)[O-],-4.1,·,0.0,·,·,
O=S1(=O)N=C(N/N=C/c2ccc(Br)o2)c2ccccc21,3.6,·,·,6.5%,1.4,
O=C(Nc1cccc(OCC(=O)N2CCOCC2)c1)c1cccc([N+](=O)[O-])c1,1.7,·,0.4,4.0%,0.5,
CC(C)CNC(=S)N(Cc1ccco1)Cc1cc2cc3c(cc2[nH]c1=O)OCCO3,8.9,-41.6,1.1,6.0%,-5.9,
CC(C)(C)N(Cc1ccccc1)C(=O)COC(=O)CN1C(=O)NC2(CCCC2)C1=O,?,·,1.8,·,·,
COc1ccc(OC)c(CN2CCN(C(=O)c3cc(S(=O)(=O)Nc4ccccc4OC)ccc3C)CC2)c1,1.4,·,3.1,·,·,
CC12CCC(C/C1=N/O)C2(C)C (configuration not stated),-3.4,·,-0.4,-2.4%,-0.7,Arbovirus anti repeat=1.7
CCOc1ccc(NC(=O)CCC(=O)n2nc(C)cc2C)cc1,-2.4,7.7,-2.9,-7.1%,4.8,
COc1ccc(C2/C(=C(\O)c3ccc4c(c3)OCCO4)C(=O)C(=O)N2Cc2cccnc2)cc1OC (configuration not stated),-1.0,·,-0.9,·,·,
FC(F)(F)c1ccc(NCCc2ccccc2)nc1,-4.9,·,-0.6,·,·,
Cc1ccc(/C=N/n2cc(-c3ccccc3)[nH]c2=S)s1,-0.7,·,2.0,-1.7%,-3.6,
C=CCn1c(COc2ccccc2F)nnc1SCCN1C(=O)c2ccccc2C1=O,50.6,-52.9,-1.2,-6.8%,1.9,
O=C(COC(=O)C1CCN(c2ccc(C(F)(F)F)cn2)CC1)c1ccccc1,-0.5,·,1.5,·,·,
COc1ccc(C(=S)N2CCN(C)CC2)cc1,-8.1,-14.6,3.0,-14.3%,5.1,

# For reference, some entries already given:
SMILES,Mtb bLac sens,YopH inh,RecA intein inh,Mtb H37Rv,Arbovirus anti,others
O=C(c1ccccc1)c1ncc[nH]1,-6.6,·,0.5,·,·,
CCn1cc(C(=O)NCCCN(C)C)c(=O)c2cc(F)c(N3CCN(C)CC3)cc21,-11.9,-7.0,1.0,-1.8%,-1.2,
CCOC(=O)C1=C(c2ccccc2)ON(C)C1c1ccccc1 (configuration not stated),-9.1,-31.1,-1.6,0.3%,0.5,
COc1ccc(N2C(=O)/C(=C/c3ccc([N+](=O)[O-])cc3)N=C2C)cc1,-2.8,·,0.3,-5.4%,-0.2,
Cn1cc([N+](=O)[O-])c(C(=O)Nc2ccc(C(=O)N3CCCCC3)cc2)n1,-6.3,-28.8,-7.0,0.2%,-29.7,
COc1ccc(/C=N/NC(=O)c2cc3c(OC)ccc(OC)c3[nH]2)cc1O,6.3,·,-1.4,·,·,
CCOc1cc(C2NC(=O)NC(O)(C(F)(F)F)C2C(=O)c2ccccc2)ccc1OC (configuration not stated),-2.2,-21.8,1.1,-20.0%,16.8,Arbovirus anti repeat=7.3
Clc1ccc(CSc2snnc2-c2ccccc2)cc1,-1.5,-24.8,17.4,5.4%,-32.7,
C=CCc1ccc(OCC(O)CN2CCCCC2C)c(OC)c1 (configuration not stated),-3.9,-30.1,2.6,0.2%,4.8,
CN(C)/C=C\C(=C/C(=O)C(F)(F)F)Nc1ccccc1Oc1ccccc1,-1.9,·,11.8,2.1%,6.9,
CCOc1ccc(N2C(=O)/C(=C\c3ccc(OC)c(O)c3)S(=O)(=O)C2c2cccc([N+](=O)[O-])c2)cc1 (configuration not stated),80.5,·,81.7*,>100µM*,-0.3,
CSc1ccc(S(=O)(=O)NCC(=O)OCC(=O)NCc2cccs2)cc1[N+](=O)[O-],-4.1,·,0.0,·,·,
O=S1(=O)N=C(N/N=C/c2ccc(Br)o2)c2ccccc21,3.6,·,·,6.5%,1.4,
O=C(Nc1cccc(OCC(=O)N2CCOCC2)c1)c1cccc([N+](=O)[O-])c1,1.7,·,0.4,4.0%,0.5,
CC(C)CNC(=S)N(Cc1ccco1)Cc1cc2cc3c(cc2[nH]c1=O)OCCO3,8.9,-41.6,1.1,6.0%,-5.9,
CC(C)(C)N(Cc1ccccc1)C(=O)COC(=O)CN1C(=O)NC2(CCCC2)C1=O,?,·,1.8,·,·,
COc1ccc(OC)c(CN2CCN(C(=O)c3cc(S(=O)(=O)Nc4ccccc4OC)ccc3C)CC2)c1,1.4,·,3.1,·,·,

# (listing goes on)
SMILES,Mtb bLac sens,YopH inh,RecA intein inh,Mtb H37Rv,Arbovirus anti,others
O=C(O)CC(CC(=O)Nc1ccc2ccccc2n1)c1ccccc1 (configuration not stated),-5.9,·,1.1,0.0%,·,
COC(=O)c1ccc(NC(=O)CN(Cc2ccc(Cl)cc2)S(C)(=O)=O)cc1,-3.5,-10.3,0.4,-9.5%,2.2,
CC(C)(C)NC(=O)CN(C(=O)CN1C(=O)C(=O)c2ccccc21)C(C)(C)C,-3.9,·,2.6,0.3%,-1.5,
COc1cc(CSc2nc(-c3ccccc3)cc(=O)[nH]2)cc(OC)c1,?,·,1.3,·,·,
COc1cc(OC)c(OC)cc1CN1CCN(S(=O)(=O)c2ccc(F)cc2)CC1,?,-29.2,-2.1,-8.4%,1.2,
O=C(NC1CCCCC1)C(c1ccc2ncccc2c1)N(Cc1ccccc1)C(=O)c1ccc2c(c1)OCCO2 (configuration not stated),97.5,-26.1,8.4,19µM*,-21.4,
COc1ccc(OC)c(NC2=NC3(CCCCC3)N=C(N)N2)c1,-1.9,-22.1,0.0,-12.2%,1.1,
N#Cc1c(-c2ccc(Cl)cc2)nc2n(c1=O)CCCS2,3.6,-5.9,0.6,-3.5%,-2.7,
O=C(CSc1nc2ccccc2c(=O)n1-c1ccccc1)NCc1ccc2c(c1)OCO2,4.3,-37.4,1.3,3.1%,-3.3,
CC(C)CNC(=O)Cn1c(=O)c2c(ncn2CC(C)C)n(Cc2ccccc2)c1=O,6.1,·,11.9,7.4%,3.0,
O=C(NC(=S)Nc1ccccn1)c1ccco1,-3.7,-3.4,1.6,9.2%,-14.0,
CC(C)(C)CC(C)(C)NC(=O)/C=C/C(=O)O,-1.0,·,0.7,-2.6%,·,
C/C(=N\Nc1nc(C)cc(C)n1)c1ccc(N2CCOCC2)cc1,-0.4,·,-5.2,-2.2%,24.4,
CC(=O)N1N=C(c2cccc([N+](=O)[O-])c2)OC1(C)c1cccs1 (configuration not stated),5.7,·,7.1,·,·,
O=C(O)c1cccc(N=Nc2c(O)[nH]c(=O)[nH]c2=O)c1,-3.9,·,3.6,-1.1%,·,
CCCC/C=C/[C@H](c1ccccc1)[C@H](CO)Cc1cccnc1,5.3,·,10.5,15.8%,·,
COc1ccc(N2CCN(C(c3cccs3)C(C)NC(=O)c3ccc4c(c3)OCO4)CC2)cc1 (configuration not stated),5.7,·,0.8,16.4%,-2.2,
CN(c1ccc(OCC(=O)Nc2nc(-c3ccccc3)cs2)cc1)S(=O)(=O)c1ccc(F)cc1,-1.6,-29.9,2.4,-0.7%,24.6,
Clc1ccccc1-c1nn2c(COc3ccccc3)nnc2s1,-6.1,-50.7,6.7,7.8%,-12.5,
O=C(CN1CCCc2ccccc21)Nc1ccccc1[N+](=O)[O-],1.2,·,-2.0,-1.5%,-4.3,
CCc1cccc(N=c2c([N+](=O)[O-])nn(-c3ccc4c(c3)OCCO4)n2O)c1,0.3,·,1.1,11.0%,7.5,
CCSc1ncc(/C=N/Nc2ccc([N+](=O)[O-])cc2)n1C,-0.4,-21.0,-3.4,4.7%,-11.4,
CC(=O)n1c(=O)oc2ccccc21,-4.1,·,-2.4,·,·,
CCOc1ccc(CCNC(=O)C2CC(=O)N(c3ccccc3OCC)C2)cc1OCC (configuration not stated),-13.5,·,-0.7,·,·,
Cc1ccc(C2=NNC(=O)C(P(=O)(c3ccccc3)c3ccccc3)C2)cc1 (configuration not stated),-4.7,·,-2.9,-4.2%,1.6,

# Reprinted at random: 2 compounds from above
SMILES,Mtb bLac sens,YopH inh,RecA intein inh,Mtb H37Rv,Arbovirus anti,others
CCCC/C=C/[C@H](c1ccccc1)[C@H](CO)Cc1cccnc1,5.3,·,10.5,15.8%,·,
CCSc1ncc(/C=N/Nc2ccc([N+](=O)[O-])cc2)n1C,-0.4,-21.0,-3.4,4.7%,-11.4,

# High-throughput results deposited in PubChem by several laboratories.
